# Bioassay records: PubChem, several laboratories
# MT1-MMP act inh – blocks activation of human MT1-MMP; AID 651647; P50281; GFP/RFP ratio change, % at 20 µM; 360,000 compounds, 0.061% hits; HT1080 RFP-PRO-GFP cells, GFP/RFP ratio fluorescence, overnight; percent of plate control window, DMSO zero;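 active means GFP/RFP ratio change of at least 30% with cell ATP level not reduced by more than half and red fluorescence within 50% of control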; further: strong numbers were not always called active
#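 system = RFP-PRO-GFP reporter HT1080 cells | dosing = 20 µM single dose, 1% DMSO | timing = overnight cell settling, then overnight compound exposure, 37 °C, 5% CO2 | read-out basis = GFP/RFP fluorescence ratio | controls = DMSO and RFP-L50D-GFP cell wells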
# CSC inhib – cancer stem cell inhibition; cancer stem cell-like cells viability, luminescence; inhibition, % at 7.5 µM; 300,000 compounds, 1.1% hits;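 active means mean at 75% or more and at least half the replicates too; inconclusive means mean and replicates disagree; tested in HMLE shEcad cells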;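 further: 0% = median of negative and 100% = median of positive control wells; the first replicate is given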
# eIF4H inh – inhibitors of RNA binding by human eIF4H | Q15056 | eIF4H fluorescence polarization binding assay | inhibition, % at 35 µM | 290,000 compounds, 0.94% hits;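 active means 50% or more with normal probe brightness, or confirmed in later tests; inconclusive means above 50% with abnormal brightness, or retests that disagree; inactive means below 50% or failed in later tests; about a fifth of its hits are not listed in these tables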;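 further: calls also rest on retests at 20 µM and on dose response follow-up; 0% = protein and probe with vehicle and 100% = probe without protein; strong numbers were not always called active; many hits fall short of the cut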
# PABP FP inh – blocks human PABP binding to poly(A) RNA | inhibition, % at 35 µM | fluorescence polarization | P11940 | 290,000 compounds, 1% hits;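 active means 50% or more with normal probe brightness, or confirmed in later tests; inconclusive means above 50% with abnormal brightness, or retests that disagree; inactive means below 50% or failed in later tests; about a fifth of its hits are not listed in these tables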;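 further: calls also rest on retests at 20 µM and on dose response follow-up; controls were probe without protein and protein plus probe with vehicle; some compounds called inactive have numbers as strong as hits; many hits fall short of the cut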
# HIV Env fusion – inhibitors of HIV Env-mediated cell fusion; inhibition, % at 12.3 µM; 360,000 compounds, 1.1% hits; HeLa-JRFL Env/CEM21 cell fusion, luciferase; AID 651610;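 active means mean replicate inhibition score of at least 50 and every replicate individually at or above 50; inconclusive means only one of the two criteria met; inactive means mean below 50 and not all replicates reaching 50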;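 further: 0% = plate neutral controls and 100% = maraviroc near 300 nM; one replicate is shown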
# Yeast UUG start – alters start codon recognition fidelity in yeast; AID 602363; activity score, % at 18.7 µM; 350,000 compounds, 0.13% hits; S. cerevisiae UUG-firefly luciferase reporter, luminescence/redox ratio;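 active means replicate mean at a twofold rise or more, about +100% in these data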;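 further: firefly luciferase made from a UUG start codon reports start codon fidelity; reporter light over untreated wells divided by growth signal over untreated wells; some hits fall short of that in this replicate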
# Rce1 inhib – inhibitors of yeast Ras-converting enzyme; Q03530; yeast membranes, quenched prenylated peptide cleavage fluorescence; calls only; 290,000 compounds, 0.27% hits; AID 2563;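 active means fall in fluorescence gain of 50% or more versus controls, with final raw signal at or below 3038400; inconclusive means same 50% fall but final raw signal above 3038400; inactive means fall in fluorescence gain under 50%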;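 further: plate controls were neutral control wells for no effect and wells lacking membranes for full effect; tested at 10 µM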
# Target sequence (Q03530 whole entry, looked up): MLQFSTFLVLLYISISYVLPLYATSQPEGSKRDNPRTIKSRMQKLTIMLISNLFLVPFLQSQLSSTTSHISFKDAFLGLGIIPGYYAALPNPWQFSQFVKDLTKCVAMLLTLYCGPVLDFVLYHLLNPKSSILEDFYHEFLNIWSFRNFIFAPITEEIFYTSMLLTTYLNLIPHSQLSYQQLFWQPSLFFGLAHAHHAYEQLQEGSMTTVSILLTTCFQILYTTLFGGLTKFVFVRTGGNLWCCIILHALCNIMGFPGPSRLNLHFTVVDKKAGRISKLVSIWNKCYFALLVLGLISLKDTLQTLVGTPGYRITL
# MT1-MMP act inh RFP – second read-out of MT1-MMP act inh, no call of its own (marks repeat the call); RFP signal change, %; measured here: RFP expression control read;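 0 = vehicle wells; hits needed this value within 50% of zero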
# * hit, by the source's call; i = inactive; ? = inconclusive; / = no result given.
Molecule,MT1-MMP act inh,CSC inhib,Yeast UUG start,eIF4H inh,HIV Env fusion,MT1-MMP act inh RFP,Rce1 inhib,PABP FP inh
COc1ccc2o/c(=N\O)c(C(=O)Nc3ccc(C)cc3)cc2c1,0,/,/,1,-26,-5,i,3
CCCNc1ncnc2c1cnn2C1CCCCO1 (stereo unspecified),-2,/,-11,/,0,-6,/,/
O=C(COc1ncnc2cc(Cl)ccc12)c1ccc2c(c1)OCCO2,/,5,-15,-10,-78,/,i,-1
Cc1cc(C)nc(SCC(=O)Nc2ccc(S(=O)(=O)Nc3cc(C)on3)cc2)n1,-5,-7,-7,25,-27,3,i,3
CCOc1ccc(CCNC(=O)COC(=O)c2cc(OC)c(OC)cc2[N+](=O)[O-])cc1OCC,1,-2,/,/,-21,-6,i,/
N#Cc1c2n(c(=S)n(-c3ccccc3)c1=O)CCCCC2,4,-19,-4,5,-1,8,i,0
Cc1ccc(C(=O)OCC(=O)NC2CCCC(C)C2C)s1 (stereo unspecified),7,/,-7,/,0,1,/,/
Cc1ccc(C(=O)NC(=S)NNC(=O)c2cccc([N+](=O)[O-])c2)cc1,7,-9,-19,11,3,3,i,-5
COc1cc(CN2CCN(Cc3cn(C)c4ccccc34)CC2CCO)cc(OC)c1 (stereo unspecified),2,2,-10,3,-27,3,i,-3
CCOC(=O)Cn1nc(C)c(NC(=O)c2ccc(Cl)c([N+](=O)[O-])c2)c1C,-3,9,/,-4,1,-5,i,19
NS(=O)(=O)c1ccc(CCNC(=O)CSc2nnc3ccccn23)cc1,4,-3,/,9,6,0,i,6
CCCCCC(=O)Nc1cc(S(=O)(=O)N2CCOCC2)ccc1N1CCCCC1,-4,-7,-2,/,2,-5,i,/
CCc1nonc1NC(=O)c1oc2c(C)c(C)ccc2c1C,-10,/,10,3,-19,-4,i,2
COc1ccc(C(=O)NC2CCCc3ccccc32)cc1OC1CCN(C(C)=O)CC1 (stereo unspecified),-12,11,9,-17,9,-2,i,-10
Cc1oc2c(CN3CCCCC3C)c(O)ccc2c(=O)c1-c1ccccc1 (stereo unspecified),-4,4,-2,-11,11,-4,?,-1
Cc1cc(S(=O)(=O)Nc2ccc(N3CCOCC3)cc2)ccc1Br,4,-11,-9,-1,-10,5,i,2
CCCN(CC(=O)Nc1ccc(F)c(F)c1F)C(=O)c1ccc(=O)n(Cc2ccccc2)n1,9,1,/,/,9,0,i,/
Cc1sc2ncnc(N[C@@H](Cc3ccccc3)C(=O)O)c2c1C,-2,-2,-1,-2,22,-2,i,5
Cc1cc(=O)[nH]c(NN=C2CCC(C(C)(C)C)CC2)n1 (stereo unspecified),4,10,/,7,0,-1,i,15
Cc1cccc(Cc2nnc(CCC(=O)N3CCCCC3c3nccs3)o2)c1 (stereo unspecified),5,11,/,-8,-4,2,/,-9
Cn1cc(S(=O)(=O)CC(=O)Nc2ccc(Br)cc2)c2ccccc21,0,-1,2,-2,-56,3,i,6
C[C@H](CO)N1C[C@H](C)[C@@H](CN(C)Cc2ccc(C(=O)O)cc2)Oc2c(NC(=O)Cc3ccccc3)cccc2C1=O,-1,/,-19,/,-9,2,/,/
CC(C)CC(C(=O)OCC(=O)Nc1cccc(Cl)c1)N1C(=O)C2CC=CCC2C1=O (stereo unspecified),0,3,/,-8,1,2,i,1
O=C(O)CCCNc1ccc([N+](=O)[O-])c(NCCCC(=O)O)n1,/,-23,/,-2,18,/,i,3
Cc1oc2c(O)c(O)ccc2c(=O)c1-c1cnn(-c2ccccc2)c1,9,55,-5,17,-102,-9,i,14
CC1=NN(C(N)=S)C(=O)C1N=Nc1ccc(C)cc1C (stereo unspecified),/,-14,/,-1,/,/,i,4
C=CCn1c(C)cc(C(=O)COc2ncnc3sccc23)c1C,5,3,-50,14,-24,3,i,37
O=C(c1ccc(-c2cc3ccccc3oc2=O)cc1)N1CCN(c2ccc(Cl)cc2[N+](=O)[O-])CC1,-3,-10,/,-3,19,-8,i,-1
N#Cc1cccn1-c1nccc(-c2cccs2)n1,-2,28,/,-5,-11,3,i,7
Cc1ccc(OCCNC(=O)/C=C/c2ccco2)cc1C,2,9,-20,20,-2,1,i,0
Cc1ccc(-c2csc3ncn(CC(=O)N4CCOCC4)c(=O)c23)cc1C,-3,-1,8,-9,-74,0,i,-3
COc1ccc(-c2nc(NC(=O)c3cc(C(C)(C)C)nn3C)sc2C)cc1,-43,81*,-19,11,/,-36,i,-1
c1ccc(Cn2nnc3ccccc32)cc1,-2,-11,-9,-6,8,0,i,9
O=C(CNC(=O)c1ccc(S(=O)(=O)N2CCCCC2)cc1)N/N=C/c1ccco1,-2,-2,/,14,6,3,i,6
O=[N+]([O-])c1ccc(C=NNC(=S)NN=Cc2ccc([N+](=O)[O-])cc2)cc1,17,/,-21,/,-27,0,/,/
N#CC1=C(N)NC(SCC(=O)O)=C(C#N)C12CCCC2,-2,-7,-10,0,/,4,i,22
O=C(Nc1ccc(-c2csc(-c3ccccc3)n2)cc1)c1ccccc1,4,23,29,-4,-158,0,/,-11
Cc1nn(Cc2c(F)c(F)c(F)c(F)c2F)c(C)c1NC(=O)c1ccc(COc2ccccc2Cl)cc1,1,/,-26,-11,41,-2,i,1
Cc1ccccc1CS(=O)(=O)Cc1ccc(C(=O)NCCc2ccccc2)o1,-7,-6,0,/,24,0,i,/
Cc1ccc(NC(=O)NC(=O)CN2CCN(c3ccc(O)cc3)CC2)c(C)c1,-3,45,6,-7,25,-25,/,1
Oc1ccc(-c2cn3ccccc3n2)cc1,-3,-4,/,3,-40,-1,i,8
CCOC(=O)C1CCCN(C(=O)c2cc3ccccc3oc2=O)C1 (stereo unspecified),1,6,/,-2,-9,2,i,-4
Cc1ccccc1C(=O)Nc1cc(-c2cc(C(C)(C)C)oc2C)nn1C,-3,36,/,10,19,-6,/,0
CCN1C(=O)C2(C(C#N)=C(N)Oc3n[nH]c(COC)c32)c2ccccc21 (stereo unspecified),-8,-1,-18,0,15,1,i,0
Cc1nc(N2CCC(C)CC2)c2oc3ccccc3c2n1,-2,-5,/,0,/,-13,i,-5
O=S(=O)(c1cccc(-c2nc3n(n2)Cc2ccccc2-3)c1)N1CCCC1,6,/,-13,-3,/,1,i,-1
O=[N+]([O-])c1ccccc1S(=O)(=O)Nc1ccn(Cc2c(F)cccc2Cl)n1,-4,-6,-9,-14,-11,5,/,-12
Cc1cccc(NC(=S)NCCc2ccc(F)cc2)c1C,0,-1,/,-10,9,3,i,1
CCOc1ccccc1NC(=O)COC(=O)C(CC)c1ccccc1 (stereo unspecified),2,-3,/,-6,4,-1,i,?
Cc1noc(C)c1C(=O)NC1CCCc2ccccc21 (stereo unspecified),-3,0,/,0,/,-2,i,6

# More entries follow.
Molecule,MT1-MMP act inh,CSC inhib,Yeast UUG start,eIF4H inh,HIV Env fusion,MT1-MMP act inh RFP,Rce1 inhib,PABP FP inh
Cc1sc(NC(=O)c2ccco2)nc1-c1ccccc1,2,25,/,0,/,-4,i,8
C=CCOC(=O)CC(NC(=O)c1ccccc1)c1ccccc1 (stereo unspecified),5,-4,-2,-5,-103,2,i,1
CN(C)Cc1csc(NC(=O)Nc2ccccc2Cc2ccccc2)n1,0,/,-8,/,-13,3,/,/
CC(=O)c1cccc(-c2ccnc3c2CC(C(=O)NCc2ccc(F)c(F)c2)O3)c1 (stereo unspecified),9,/,-11,/,-60,-6,/,/
CC(=O)CSc1ncnc2scc(-c3ccc(F)cc3)c12,2,-12,/,-5,-1,4,i,-8
O=C(CCN1CCCC1)Nc1ccccc1,0,7,-11,-5,-26,-6,i,-5
Cc1cc(C(=O)NCC23CC4CC(CC(C4)C2)C3)c(C)o1,/,-3,/,-1,/,/,i,6
C=CCn1c(=O)c2ccccc2n2c(SCC(=O)NCc3cccs3)nnc12,-1,-11,-17,2,/,-1,i,-7
Cn1c(=O)oc2cc(S(=O)(=O)NCc3ccc(F)cc3)ccc21,-17,5,-5,28,10,3,i,-8
CC(C)[C@H](NC(=O)C1CCN(S(=O)(=O)c2ccccc2)CC1)C(=O)NCc1ccccn1,3,5,-16,-19,-3,7,i,-6
COC(=O)c1c(C(=O)OC)c(-c2ccc(Cl)cc2)n2c1CS(=O)(=O)C2,1,-8,-8,2,-4,3,i,-18
CCc1nc2ccc(C(=O)NCCOc3ccc(OC)cc3)cn2c1N(CCN(C)C)CC1CC1,-6,/,-16,/,-59,-1,/,/
CC(=O)c1cccc(N(C(=O)CNC(=O)c2cccs2)C(C(=O)NCC2CCCO2)c2ccccc2)c1 (stereo unspecified),0,-8,-7,1,-20,5,i,6
CN(C)c1ncc(CN2CCC(CO)(CCCc3ccccc3)CC2)s1,10,-1,-18,-10,-1,8,i,14
Cc1ccc(NC(=O)N2CCC(C(=O)NCc3ccccc3)CC2)cc1,-4,8,-20,2,-49,-3,i,23
CCCCNc1c(NC(C)=O)c(=O)oc2ccccc12,1,-7,/,-4,3,7,/,0
Cn1nnnc1Sc1ncnc2scc(-c3ccc(C(F)(F)F)cc3)c12,-2,94*,-18,/,-33,-33,/,/
CCc1c(C(=O)NNC(=S)NCC2CCCO2)csc1C (stereo unspecified),-1,-13,/,-2,-3,2,i,2
CC(C)(C)c1ccc(OCC(=O)NNC(=O)Cc2cccs2)cc1,-4,-1,8,-8,/,0,i,-6
COC(=O)c1ccc(OCC(=O)c2ccc(C)c(C)c2)cc1,4,-4,/,-9,10,2,i,2
CCOC(=O)c1oc2ccccc2c1NC(=O)c1cc(OC)cc(OC)c1,0,0,-9,-16,/,-6,i,-5
Cc1cc(NC(=O)CSc2ccccn2)cc(NC(=O)CSc2ccccn2)c1,5,/,-5,-15,10,-1,i,-3
CCCCC(=O)NCCNc1nc2c(c(=O)n(C)c(=O)n2C)n1Cc1ccc(F)cc1,4,1,7,1,19,1,i,-10
Cc1cccc(C)c1NC(=O)CNC(=O)CN1C(=O)NC2(CCc3ccccc32)C1=O (stereo unspecified),-3,/,-1,/,20,3,/,/
Cc1c(CCC(=O)O)c(=O)oc2c(C)c3occ(-c4ccc(Br)cc4)c3cc12,15,4,-11,72*,3,-11,i,80*
COc1ccccc1-c1cn(C(C)(C)C)nc1C,1,9,/,2,16,-1,i,-12
Cc1cc(C)cc(NC(=S)N2CCC(NC(=O)c3ccco3)CC2)c1,-1,-16,-27,-9,-22,0,/,-10
NC(=O)C1CCN(C(=O)c2ccc(Cl)c(S(=O)(=O)NCc3ccco3)c2)CC1,-11,-19,-15,/,-2,-4,/,/
CCC(c1nnc(SC(C)C(=O)NC2CC2)n1-c1ccc(OC)cc1)N(C)C (stereo unspecified),0,/,-7,/,-15,2,/,/
O=C(COc1cccc2ccccc12)NNC(=O)Nc1ccccc1,9,17,-2,12,-89,0,i,-13
Cc1ccccc1NC(=O)Nc1c(C)n(C)n(-c2ccccc2)c1=O,0,-3,-10,-8,-22,1,i,-9

# An excerpt. The share of hits here may be higher or lower than overall.
